StopGo reporter = lowers the luciferase signal of an FMDV 2A StopGo reporter. human cells with a luciferase reporter of 2A StopGo recoding; control for the full effect not named in the record. Potency, µM (titrated, usually from 57.9 µM), for inactives: top-dose signal change, negative = less light. actives 1.2% (n = 410,000); active = well fitted falling curve with a large enough effect; inconclusive = small, poorly fitted or top-dose-only effect; inactive = no such curve, though single readings can be large or run the other way; tested in HEK293T cells; further: on the % scale 0 is the no-effect control and ±100 the full control effect; nearly all actives have a fitted effect of over 45% in size; luciferase light after 4 h
NS1 inh = blocks influenza NS1 protein function; S. cerevisiae slowed by influenza A NS1, growth recovery by OD600; Potency, µM (titrated, usually from 46.1 µM), for inactives: top-dose activity, positive = more growth; actives 0.4% (n = 270,000); further: actives are rising curves; nearly all actives have a fitted effect of over 50% in size
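Recovery from NS1-induced slow growth read by OD600 in budding yeast switched to galactose assay medium (pH 6.0, -URA) at 1:100 dilution. Compound 23 nl per well; the matching strain lacking NS1 serves as control.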
Cruzain Triton = inhibitors of Trypanosoma cruzi cruzain with detergent; Potency, µM, without a hit: max response, negative = inhibition, hits mostly inhibitors; P25779; actives 0.43% (n = 200,000); purified cruzain, Z-FR-AMC fluorescence, 0.01% Triton; active means well fitted curve in the direction sought with a large enough effect; inconclusive means small, poorly fitted or top-dose-only effect, or another doubt; inactive means no such curve, though single readings can be large; an effect the other way counts as inactive or inconclusive;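 further: plate controls were neutral wells for no effect and buffer without enzyme for full effect; nearly all actives have a fitted effect of over 40% in size; top concentration of the series not given in the record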
Target sequence (P25779 123-467 limits assumed): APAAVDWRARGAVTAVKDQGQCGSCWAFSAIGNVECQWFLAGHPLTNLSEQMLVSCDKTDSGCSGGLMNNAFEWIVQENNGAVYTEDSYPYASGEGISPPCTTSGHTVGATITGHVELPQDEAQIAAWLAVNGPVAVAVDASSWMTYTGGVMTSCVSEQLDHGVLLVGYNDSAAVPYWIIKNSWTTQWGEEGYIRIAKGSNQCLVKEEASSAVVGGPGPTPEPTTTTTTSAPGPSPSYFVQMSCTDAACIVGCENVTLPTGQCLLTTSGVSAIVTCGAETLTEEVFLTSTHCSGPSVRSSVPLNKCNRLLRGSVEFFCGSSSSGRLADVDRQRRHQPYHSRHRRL
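Purified cruzain (1.5 nM final) was preincubated with compounds for 15 min at room temperature in 100 mM sodium acetate pH 5.5, 5 mM DTT, 0.01% Triton X-100. Reaction started with 2 uM Z-FR-AMC; AMC fluorescence change over 60 s gave activity.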
RE007 growth inh = less growth of the S. pombe RE007 Vpr strain. S. pombe RE007 Vpr strain, BacTiter-Glo ATP luminescence, 24 h; control for the full effect not named in the record. Potency, µM (titrated, usually from 92.2 µM), inactives show top-dose activity change, negative = less growth. actives 0.21% (n = 360,000). AID 651644; active = well fitted falling curve with a large enough effect; inconclusive = small, poorly fitted or top-dose-only effect; inactive = no such curve, though single readings can be large or run the other way;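 further: on the % scale 0 is the no-effect control and ±100 the full control effect; nearly all actives have a fitted effect of over 50% in size; the assay follows cell death caused by Vpr and the record does not say whether a fall means rescue or toxicity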
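Fission yeast strain RE007, carrying one chromosomally integrated HIV-1 vpr copy, was seeded at OD 0.01 in PMG+AL medium with 23 nL pinned compound. After 24 h at 30 °C and 99% humidity, viability was read by BacTiter-Glo luminescence.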
MARV entry inh = inhibitors of Marburg virus binding or cell entry; Potency, µM (highest dose often 37.8 µM), for inactives: top-dose activity change, negative = inhibition, actives largely listed as inhibitors; Marburg virus pseudotyped entry inhibition, cell reporter; control for the full effect not named in the record; about a third of the inactives were read at about 46 µM; actives 1.8% (n = 300,000); active = well fitted inhibition curve with a large enough effect; inconclusive = small, poorly fitted or top-dose-only effect, or effect the other way; inactive = flat fitted curve, though single readings scatter; tested in HEK293 cells; about a fifth of its hits are not listed in these tables; further: on the % scale 0 is the no-effect control and ±100 the full control effect; luciferase read-out
Lassa entry inh = inhibitors of Lassa virus binding or cell entry | Lassa virus pseudotype entry inhibition, cell reporter; control for the full effect not named in the record | Potency, µM (highest dose often 37.9 µM), inactives show top-dose activity change, negative = inhibition, hits mostly inhibitors | actives 1.2% (n = 300,000); active means well fitted inhibition curve with a large enough effect; inconclusive means small, poorly fitted or top-dose-only effect, or effect the other way; inactive means flat fitted curve, though single readings scatter; tested in HEK293 cells; further: on the % scale 0 is the no-effect control and ±100 the full control effect; nearly all actives have a fitted effect of over 50% in size; luciferase read-out
Cruzain noTriton = blocks cruzain activity in detergent-free assay; P25779; purified cruzain, Z-FR-AMC fluorescence, no detergent; actives 2.3% (n = 200,000); Potency, µM, for inactives: max response, negative = inhibition, actives largely listed as inhibitors; active means well fitted curve in the direction sought with a large enough effect; inconclusive means small, poorly fitted or top-dose-only effect, or another doubt; inactive means no such curve, though single readings can be large; an effect the other way counts as inactive or inconclusive;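 further: plate controls were enzyme without inhibitor for no effect and buffer without enzyme for full effect; nearly all actives have a fitted effect of over 40% in size; top concentration of the series not given in the record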
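Detergent-free condition (0.00005% Triton X-100) in acetate buffer pH 5.5 with DTT. 1.5 nM enzyme and compound were pre-mixed 15 min, then 2 uM Z-FR-AMC substrate added; reaction progress from fluorescence change between first and third reads (60 s).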
SARS PLP yeast = inhibitors of SARS-CoV papain-like protease in yeast; S. cerevisiae expressing SARS-CoV PLpro, growth rescue; control for the full effect not named in the record; Potency, µM (top dose mostly 32.9 µM), without a hit: at the top dose activity, positive = growth rescue; actives 0.19% (n = 330,000); further: 0% is about no effect; nearly all actives have a fitted effect of over 55% in size; growth read by luminescence after 48 h
* hit, by the source's call; ? = inconclusive; . = no result given; & = joins results of further samples; [ ] = another dose, or the depositor's remark. Unless noted, the call rests on the fitted dose curve; in most records, active means well fitted rising curve with a large enough effect; inconclusive means small, poorly fitted or top-dose-only effect; inactive means no such curve, though single readings can be large or run the other way. Potency means the concentration at half of the fitted maximal effect.

Order of results – StopGo reporter	NS1 inh	Cruzain Triton	RE007 growth inh	MARV entry inh	Lassa entry inh	Cruzain noTriton	SARS PLP yeast
Cc1c([N+](=O)[O-])cc(C(=O)Nc2ccc3ncccc3c2)cc1[N+](=O)[O-]
 : -15%	3%	.	8%	?	-5%	.	-1%
COc1ccc(-n2c(Cc3cccn3C)nnc2SCC(=O)N2CCOCC2)cc1
 : -2%	?	-0.1%	0%	-3%	0%	-3%	-16%
CCOC(=O)C1(CCOc2ccccc2)CCN(Cc2cccs2)CC1
 : ?	-4%	.	4%	?	.	.	-1%
Cc1ccccc1NC(=O)Cn1nc(C)c2ccccc2c1=O
 : -3%	15%	.	-9%	?	7%	.	-2%
CC(=O)N1CCN(c2ccc(NCc3ccc(F)cc3)cc2)CC1
 : ?	?	-2.8%	-1%	.	.	5%	-8%
O=C(OCc1cc2ccccc2[nH]c1=O)c1ccccn1
 : -2%	6%	5.3%	1%	?	2%	-10%	12%
CCOc1ccc(NC(=O)CN(C)C(=O)Cn2c(=O)oc3ccccc32)cc1OCC
 : -24%	.	.	-16%	-9%	-8%	.	3%
NC(=O)c1c(/N=C/c2cccs2)sc2c1CCCC2
 : 3%	-1%	.	-2%	.	.	.	-1%
Cc1ccc(C(C)NC(=O)Cc2cccs2)c(C)c1 (stereo not given)
 : -12%	-3%	.	19%	1%	?	.	15%
CCOC(=O)c1ccc(NC(=S)NCCCN2CCCC2=O)cc1
 : ?	6%	.	9%	-24%	-1%	.	-1%
CC1(NC(=O)N2CCCCC2)CCS(=O)(=O)C1 (stereo not given)
 : 0%	2%	1.3%	-11%	1%	6%	10%	6%
COc1ccc(CC(=O)NNC2=Nc3cccc4cccc2c34)cc1OC
 : 29%	3%	.	28%	.	.	.	0%
Cc1noc(C)c1S(=O)(=O)N(CC(=O)NCc1ccccc1)c1ccc(C(C)C)cc1
 : -25%&2%	7%	-2.2%	10%	-16%&-16%[46.1 µM]	2%[46.1 µM]	-6%	10%
CC(C(=O)NC1CCCc2ccccc21)N1CCN(Cc2ccc3c(c2)OCO3)CC1 (stereo not given)
 : -22%	-1%	2.9%	-3%	-14%	-7%	-4%	-7%
COc1ccc(C(CNC(=O)C(C)Oc2ccc(Br)cc2)N2CCCC2)cc1 (stereo not given)
 : 6%	.	.	-9%	?	7%	.	2%
Cc1nn(C)cc1CNC(=O)c1ccc(F)cc1
 : -17%	11%	-2.3%	-27%	4%	9%	7%	-8%
CCOc1ccc(C(=O)CCC(=O)Nc2cccc(S(=O)(=O)N3CCCCC3)c2)cc1
 : 0%	.	.	3%	?	10µM*	.	-3%
Cc1ccc(S(=O)(=O)N2CCN(C(=O)COC(=O)CSc3ccccc3)CC2)c(C)c1
 : -21%	.	.	0%	1%	2%	.	3%
Cc1ccc(NC(=O)COC(=O)c2ccc(F)cc2Cl)c(Br)c1
 : 11%	.	.	-11%	0%[46.1 µM]	-4%	.	-1%
COc1ccccc1-n1c(CNC(=O)c2ccco2)n[nH]c1=S
 : 3%	4%	.	-6%	?	27%[46.1 µM]	.	?
CC(=O)c1cc(Cl)ccc1OCc1cccc(S(=O)(=O)N2CCOCC2)c1
 : -23%	.	.	-3%	?	3%	.	-10%
O=C(N/N=C/c1ccncc1)NC12CC3CC(CC(C3)C1)C2
 : 2%	-37%	.	13%	.	.	.	3%
CCOC(=O)CNC(=O)N1CCC(CCC(=O)N(C)Cc2ccccc2)CC1
 : -4%	3%	.	-6%	12%[46.1 µM]	3%[46.1 µM]	.	-1%
CCOC(=O)c1c(NC(=O)CN2C(=O)NC3(CCC(CC)CC3)C2=O)sc(C)c1-c1ccc(C)cc1 (stereo not given)
 : -28%	1%	-2.1%	-7%	?	?	20µM*	8%
Cc1c(C(=O)N/N=C/c2ccoc2)cccc1[N+](=O)[O-]
 : 4%	1%	.	2%	.	.	.	4%
Nc1nnc(P(c2ccccc2)c2ccccc2)s1
 : -14%	4%	.	-5%	.	.	.	1%
COc1ccc(-n2cnc3c(sc4nccc(N(C)C)c43)c2=O)cc1
 : 8%	-60%	-5.2%	2%	?	0%	-6%	-10%
CCNCC(=O)N1c2ccccc2CCc2ccc(NC(C)=O)cc21
 : 13%	1%	2.9%	0%	-13%	23%	-12%	-14%
Cc1ccc(N=Cc2c(O)n(C)c(=O)n(C)c2=O)cc1
 : 0%	10%	.	5%	.	.	.	3%
COc1c(Br)cc([N+](=O)[O-])c(OC)c1C(=O)NC(=O)Nc1nc(C)cc(C)n1
 : -12%	-1%	.	5%	.	.	.	-3%
CC(C)c1ccc(C2OCCCO2)cc1
 : 32%[activator]	.	.	8%	9%	1%	.	.
Cc1ccc(S(=O)(=O)N2CCOCC2)cc1C(=O)N1CC(C)OC(C)C1 (stereo not given)
 : -5%	.	.	-21%	9%	-1%	.	-3%
O=C(O)CCCC(=O)NCCc1ccncc1
 : 12%	1%	17%	7%	18%	2%	-9%	0%
O=C(Oc1ccc(Cl)c2cccnc12)C12CC3CC(CC(C3)C1)C2
 : -14%	-8%	-4.2%	33%	25%	18%	-7%	-75%
CN(c1ccccc1)S(=O)(=O)c1ccc(C(=O)OCC(=O)NC(N)=O)cc1
 : -17%	-3%	.	1%	.	.	.	1%
Cc1ccc2c(c1)COc1c3ccc(C(=O)N[C@@H](CO)C(C)C)cc3nn1-2
 : 19%	-9%	.	0%	.	.	.	1%
O=C1/C(=C/c2ccccc2)Oc2cc(OC(=O)N3CCOCC3)ccc21
 : -7%	1%	-8.5%	2%	4%	15%	?	-12%
CCCSc1nc(=O)n2cccc(C)c2n1
 : 34%[activator]	-22%	3.5%	3%	5%	24%	-7%	1%
O=C1ON=C(c2ccc(Cl)cc2)/C1=C/c1ccc(O)cc1
 : 13µM*	?	.	-27%	?	-23%	.	0%
COc1ccc(N2CCN(C(=O)c3ccc(C)c(Cl)c3)CC2)cc1
 : 21%	-45%	-6.6%	-2%	-3%	3%	-2%	.
COc1ccc(N(C(=O)c2ccncc2)S(=O)(=O)c2ccc(OC)c(OC)c2)cc1
 : 46%[activator]	-43%	.	3%	.	.	.	-20%
Clc1cccc(CSC2=NCCCN2)c1
 : -14%	5%	-9.6%	108%	?	4%	-13%	18%
Cc1cc(C)n(C(=O)c2cccc([N+](=O)[O-])c2)n1
 : 4%	-1%	.	-19%	.	.	.	-1%
CC(C)CC[n+]1ccn(C2=C([O-])c3ccccc3C(=O)/C2=N\S(=O)(=O)c2ccccc2)c1
 : .	15%	1.4%	-8%	?	?	-4%	-4%
Cc1cc(C(=O)O)c(CCCN)s1
 : .	-1%	0.3%	-18%	2%	0%	-3%	4%
COc1cc(C#N)ccc1OCC(=O)NCc1cccs1
 : 19%	6%	.	1%	?	10%	.	0%
O=C(c1ccccc1Cl)N1CCC(c2nc3ccccc3s2)CC1
 : ?	.	-8.6%	.	2%[46.1 µM]	8%[46.1 µM]	-8%	.
CCc1ccccc1OCC(=O)Nc1nc(-c2cccnc2)cs1
 : ?	.	.	?	?	-24%	.	?
Cc1cc(SCC(=O)N2CCCC2=O)nc2ccccc12
 : 7%	.	.	-15%	3%[46.1 µM]	?	.	2%
O=C(/C=C/c1ccccc1)N1CCN(c2ccc([N+](=O)[O-])c(N3CCOCC3)c2)CC1
 : ?	-35%	-6.3%	5%	15%	-13%	12%	-15%
Cc1ccc(Cl)cc1NC(=O)CCn1cnc2ccccc2c1=O
 : -21%	.	-2.0%	.	.	-1%[46.1 µM]	-3%	.
COc1cc(C(=O)Nc2cc(C)cc(C)c2)c(-n2cnnn2)cc1OC
 : 3%	-2%	.	-6%	-17%[46.1 µM]	-7%	.	0%
CCS(=O)(=O)c1ncc(Cl)c(C(=O)NCc2ccc(OC)cc2)n1
 : 25µM*	.	-4.1%	.	.	?	1%	.
COc1ccc(Nc2ncc(C(=O)N3CCN(c4ccccc4OC)CC3)c3ccccc23)cc1
 : ?	-46%	-7.5%&-6.5%	6%	?	?	?	?
CCOc1ccccc1-n1c(SCC(=O)NCc2ccco2)nnc1-c1ccncc1
 : 33%[activator]	-1%	0.9%	-1%	6%&5%	26%	5%	8%
O=C(C[n+]1ccccc1)N/N=C/c1c(F)cccc1Cl
 : -5%	-4%	.	6%	.	.	.	-4%
CC(=O)c1c(C)oc2ccc(N(C(=O)C3CCCCC3)S(=O)(=O)c3cc([N+](=O)[O-])ccc3C)cc12
 : 24%	13%	-4.2%	-17%	-9%	28%	?	17%
CC1Oc2ccccc2N(CC(=O)c2ccccc2)C1=O (stereo not given)
 : 18%	?	0.6%	-20%	13%	?	-14%	12%
COc1ccc2c(c1)c1c(c(=O)n(-c3cccc(C)c3)c(=O)n1CC(=O)NCC1CCCO1)n2C (stereo not given)
 : -6%	.	-3.6%	.	.	3%[46.1 µM]	5%	.
N#CC1=C(N)Oc2n[nH]c(-c3cccs3)c2C1C1CCCCC1 (stereo not given)
 : ?	10%	-15%	-8%	?	-6%	9%	8%

Remaining list, next part
Order of results – StopGo reporter	NS1 inh	Cruzain Triton	RE007 growth inh	MARV entry inh	Lassa entry inh	Cruzain noTriton	SARS PLP yeast
O=C1[C@@H]2C(c3cccnc3)=NO[C@@H]2C(=O)N1c1ccc2ccccc2c1
 : -12%	-59%	.	14µM*	-9%[14.2 µM]	-8%	.	-6%
COc1ccc(S(=O)(=O)N(C)CC(=O)N2CCOCC2)cc1Cl
 : -20%	3%	1.8%	4%	-3%	-2%	0%	1%
Cc1cc(C)n2nc(SCc3nc4ccccc4[nH]3)nc2n1
 : 2%	?	2.7%	0%	.	.	-12%	19%
N#CC1=C2SCN(C3CCCCC3)CN2C(=O)CC1c1ccc(Br)cc1 (stereo not given)
 : -18%	.	?	.	4%[46.1 µM]	27%[46.1 µM]	17%	.
N#C/C(=C(/O)c1ccc([N+](=O)[O-])s1)c1nc2ccccc2[nH]1
 : ?	-7%	.	-1%	.	.	.	-1%
